VCAM-1 up: enhancers of VCAM-1 display on endothelial cells, cell-based, plate reader, pooled HUVEC, TNFa stimulus (AID 455). HUVEC TNFa-induced VCAM-1 immunofluorescence, plate reader; numbers were filed only for top-ranked candidate wells. augmentation, % at 5 µM. hit rate 0.2% among 10,000;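 active means a compound raising TNF-alpha-driven VCAM-1 surface staining, with its hit status upheld on visual or statistical review; inactive means the rest, including hits rejected on review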;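 further: 0% = TNFa with vehicle and 100% = strongest image-checked hit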
Proteasome disasm: blocks ATP-dependent breakdown of the yeast 26S proteasome; inhibition of disassembly, % (no concentration beside the values); AID 751; hit rate 0.2% among 24,000; anti-FLAG beads, GFP-proteasome disassembly, flow cytometry;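 active means above 40%; inconclusive means likely self-fluorescent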;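 further: plate controls were ATP control with full disassembly for no effect and ATP-gamma-S intact proteasomes for full effect; higher percent means more bead fluorescence retained so stronger block of disassembly; stock transfer was 100 nL into about 10 µL; wells with too few beads may also be inconclusive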
Starred values were filed as active, the others as inactive.

The first two records, ahead of the listing:
How did N#Cc1c(-c2ccc(Cl)cc2Cl)nc2n(c1=O)CCS2 do in these assays?
Proteasome disasm: -1.1

Results for CCc1nn(CC(=O)N2CCN(Cc3ccc4c(c3)OCO4)CC2)c(=O)c2cc3occc3n12 ?
VCAM-1 up: inactive; Proteasome disasm: -2.1

Results, from the start:
How did N#Cc1c(-c2ccc(Cl)cc2Cl)nc2n(c1=O)CCS2 do in these assays?
Proteasome disasm: -1.1

Results for CCc1nn(CC(=O)N2CCN(Cc3ccc4c(c3)OCO4)CC2)c(=O)c2cc3occc3n12 ?
VCAM-1 up: inactive; Proteasome disasm: -2.1

Results for COc1ccc(C(=O)NCc2cn3ccccc3n2)cc1 ?
Proteasome disasm: 0.3

What do the screens show for `COc1ccccc1C(=O)NCCn1cc(SCC(=O)Nc2cc(C)on2)c2ccccc21`?
Proteasome disasm: 0.5

Results for CCOC(=O)c1[nH]c(C)c(C(=O)N(CC)CC)c1C ?
Proteasome disasm: 1.5

What do the screens show for `Cc1[nH]n(-c2ccccc2)c(=O)c1/C=N/c1ccccn1`?
Proteasome disasm: 0.9

Results for CCOC(=O)c1ccc(NCc2nc3ccccc3[nH]2)cc1 ?
VCAM-1 up: inactive; Proteasome disasm: 0.2

What do the screens show for `COc1ccc(C2=NOC(C(=O)Nc3cc(Br)ccc3O)C2)cc1OC` (configuration not stated)?
VCAM-1 up: inactive; Proteasome disasm: -0.7

How did CN1CCN(C(=O)c2ccc(CS(=O)(=O)c3c(Cl)cccc3Cl)o2)CC1 do in these assays?
VCAM-1 up: inactive; Proteasome disasm: -1.1

What do the screens show for `O=C(Oc1cccc2cccnc12)c1cccc(-n2cnnn2)c1`?
VCAM-1 up: inactive; Proteasome disasm: 0.5

Results for COc1ccc(C2CCCN2C(=O)c2cccs2)cc1 (configuration not stated) ?
Proteasome disasm: 0.1

What do the screens show for `CCN(CC(F)(F)C(F)F)S(=O)(=O)c1ccc(NC(=O)OC)cc1`?
Proteasome disasm: 0.0

What do the screens show for `Cc1nc(SC2C=CS(=O)(=O)C2)n[nH]1` (configuration not stated)?
VCAM-1 up: inactive; Proteasome disasm: 0.2

How did CC(C)(C)c1cnnn1-c1ccc(NC(=O)c2ccc(Br)o2)cc1 do in these assays?
Proteasome disasm: 0.5

What do the screens show for `N#CC1=C2SCN(c3ccc(F)cc3)CN2C(=O)CC1c1cccc(F)c1` (configuration not stated)?
Proteasome disasm: -0.8

What do the screens show for `CCCN1C(=O)c2ccccc2NC1c1ccc(OC)cc1O` (configuration not stated)?
Proteasome disasm: -0.6

How did Cn1c(SCc2nc3ccccc3n2CCO)nc2ccccc21 do in these assays?
Proteasome disasm: -0.6

Results for CCOC(=O)N1CCC(NC(=O)c2cc(S(=O)(=O)N3CCOCC3)ccc2F)CC1 ?
Proteasome disasm: -8.1

How did Cc1[nH]c(=O)[nH]c(=O)c1S(=O)(=O)N1CCCC(C(=O)N2CCC(Cc3ccccc3)CC2)C1 (configuration not stated) do in these assays?
Proteasome disasm: -1.4

What do the screens show for `CCOC(=O)C1CCCN(C(=O)c2ccc3c(=O)n(CCOC)c(=S)[nH]c3c2)C1` (configuration not stated)?
VCAM-1 up: inactive; Proteasome disasm: 0.3

Results for CCCCNC(=O)C1CCN(S(=O)(=O)c2cnc[nH]2)CC1 ?
Proteasome disasm: -0.6

What do the screens show for `O=S(=O)(c1cccs1)N1CCN(C/C=C/c2ccccc2)CC1`?
VCAM-1 up: inactive; Proteasome disasm: 2.0

How did CS(=O)(=O)N(CC(=O)NC1CC1)c1cccc(F)c1 do in these assays?
VCAM-1 up: inactive; Proteasome disasm: 0.3

What do the screens show for `O=S(=O)(c1ccc(OCC(O)CN2CCN(c3ccccc3)CC2)cc1)N1CCOCC1` (configuration not stated)?
VCAM-1 up: inactive; Proteasome disasm: 2.0

Random excerpt: 2 entries already listed
Results for CCOC(=O)N1CCC(NC(=O)c2cc(S(=O)(=O)N3CCOCC3)ccc2F)CC1 ?
Proteasome disasm: -8.1

How did Cn1c(SCc2nc3ccccc3n2CCO)nc2ccccc21 do in these assays?
Proteasome disasm: -0.6

Next records follow.
What do the screens show for `CCOC(=O)c1ccc(NC(=O)Cn2nnc(-c3ccccc3)n2)cc1`?
Proteasome disasm: 1.2

What do the screens show for `O=C(O)Cn1nnc(-c2cccs2)n1`?
Proteasome disasm: 2.1

How did CCOC(=O)N1CCN(C(=O)C(NC(=O)C2CCC(C)CC2)C(C)C)CC1 (configuration not stated) do in these assays?
Proteasome disasm: 1.6

What do the screens show for `N#C/C=C\Oc1ccc(Cl)cc1N`?
Proteasome disasm: 0.9

What do the screens show for `CC1C(=O)C(C)C(c2ccc3c(c2)OCO3)NC1c1ccc2c(c1)OCO2` (configuration not stated)?
Proteasome disasm: 1.4

Results for Cc1ccc(C2CC(c3cccc(Cl)c3)n3nc(N)nc3N2)cc1 (configuration not stated) ?
Proteasome disasm: -3.0

How did COc1cc(OC)cc(-c2nc3nc(C)c(CCC(=O)NCc4ccco4)c(C)n3n2)c1 do in these assays?
Proteasome disasm: 0.5

What do the screens show for `CCCCc1cc(=O)oc2c(CN3CCCC3)c(O)c(Cl)cc12`?
VCAM-1 up: inactive; Proteasome disasm: 1.0

What do the screens show for `CCOC(=O)c1oc2ccccc2c1NC(=O)c1ccc(S(=O)(=O)N(C)C)cc1`?
Proteasome disasm: 0.5

Results for CCOC(=O)CCc1c(C)nc2cc(-c3ccccc3OC)[nH]n2c1=O ?
Proteasome disasm: -2.1

How did CCOc1ccc(Cn2nnc(C(=O)Nc3cc(C)cc(C)c3)c2N)cc1 do in these assays?
VCAM-1 up: inactive; Proteasome disasm: -0.6

How did O=c1oc2cc(O)ccc2c2oc3cc(O)ccc3c12 do in these assays?
VCAM-1 up: inactive; Proteasome disasm: -0.3

How did O=C1C2CCCN2C(c2ccc(F)cc2)N1c1ccc(Cl)cc1 (configuration not stated) do in these assays?
Proteasome disasm: 3.3

Results for CCN(CC)Cc1nc2c(c(=O)[nH]1)C1(CCCCC1)Cc1ccccc1-2 ?
VCAM-1 up: inactive; Proteasome disasm: 1.4

Results for CCOC(=O)C1CCN(C(=O)CCn2c(=O)[nH]c3ccccc3c2=O)CC1 ?
Proteasome disasm: 0.6

How did Cc1cccc(C)c1NC(=O)C1(N2CCN(C(=O)c3ccco3)CC2)CCCCC1 do in these assays?
Proteasome disasm: 1.9

Results for COc1ccc(CCN2C(=O)c3cccnc3C2=O)cc1OC ?
Proteasome disasm: -0.3

What do the screens show for `COC(=O)c1cc2oc(C)cc2n1CC(=O)Nc1ccc(OC)c(OC)c1OC`?
Proteasome disasm: -0.8

What do the screens show for `CCCS(=O)(=O)N1CCCC(C(=O)N2CCN(c3ccccc3)CC2)C1` (configuration not stated)?
Proteasome disasm: -0.1

Results for Cn1c(SCC(=O)O)nnc1C1CCCCC1 ?
VCAM-1 up: inactive; Proteasome disasm: -0.2

What do the screens show for `Cc1cc(NS(=O)(=O)Cc2ccccc2)cc(C)c1OCC(=O)N1CCOCC1`?
VCAM-1 up: inactive; Proteasome disasm: 0.3

What do the screens show for `CCN1CCN(C(=O)C2CCN(C(=O)c3cc4sccc4n3CC)CC2)CC1`?
VCAM-1 up: inactive; Proteasome disasm: 0.0

How did CCCNC(=O)C1CC(=O)N(c2ccc(OCC(=O)Nc3cc(C)cc(C)c3)cc2)C1 (configuration not stated) do in these assays?
VCAM-1 up: inactive; Proteasome disasm: -0.2

What do the screens show for `CCOC(=O)Cc1csc(NC(=O)CSc2nnc(C)n2C)n1`?
VCAM-1 up: inactive; Proteasome disasm: -1.9

Results for CN(C)S(=O)(=O)c1ccc(C(=O)N2CCN=C2SCc2cccnc2)cc1 ?
Proteasome disasm: 0.3

Results for O=C(CC(NS(=O)(=O)c1ccc(Cl)cc1)c1ccco1)NCc1cccnc1 (configuration not stated) ?
Proteasome disasm: -2.1

What do the screens show for `Cn1c(=O)cc(OCC(=O)N2CCCc3ccccc32)c2ccccc21`?
Proteasome disasm: inconclusive

Results for COc1cccc(C2CC(c3ccccc3C)n3nc(N)nc3N2)c1 (configuration not stated) ?
Proteasome disasm: -1.1

What do the screens show for `COC(=O)c1cnn(C(=O)c2cc(OC)ccc2Br)c1N`?
Proteasome disasm: -1.6

What do the screens show for `COC(=O)C1=C(C)N=c2s/c(=C/c3cccs3)c(=O)n2C1c1cccs1` (configuration not stated)?
Proteasome disasm: 109.8*

What do the screens show for `CC(=O)Nc1ccc(OC(=O)c2cccs2)cc1`?
VCAM-1 up: inactive; Proteasome disasm: -0.1

Results for CCOc1ccc(N(CC(=O)Nc2ccc(F)c(F)c2)S(=O)(=O)c2c(C)noc2C)cc1 ?
VCAM-1 up: inactive; Proteasome disasm: -1.1

Results for CCN(CC)c1ccc(C(=O)n2cnc3ccccc32)cc1 ?
VCAM-1 up: inactive; Proteasome disasm: 3.1

What do the screens show for `CCCC1O[C@@H]2C[C@H]3[C@@H]4CCC5=CC(=O)C=C[C@]5(C)[C@H]4[C@@H](O)C[C@]3(C)[C@]2(C(=O)CO)O1` (some centres not stated)?
VCAM-1 up: inactive; Proteasome disasm: -0.3

How did COc1ccc(CN2C(=O)c3ccccc3C2C(=O)NCc2cccnc2)c(OC)c1 (configuration not stated) do in these assays?
Proteasome disasm: -0.6

How did CNC(=O)c1ccsc1NC(=O)c1ccccc1 do in these assays?
VCAM-1 up: inactive; Proteasome disasm: 0.4

Results for CCOC(=O)N1CCC(NC(=O)c2cc(S(=O)(=O)N3CCCC3)cn2C)CC1 ?
Proteasome disasm: -1.5

Results for CCOC(=O)Nc1cc(OC)c(OC)cc1Cc1nccc2cc(OC)c(OC)cc12 ?
VCAM-1 up: inactive; Proteasome disasm: -0.1

How did CNC(=O)CSc1nnc(-c2cc3c(C)nn(-c4ccccc4)c3s2)n1C do in these assays?
VCAM-1 up: inactive; Proteasome disasm: -1.6

Results for Cn1cccc1Cc1nnc(SCC(=O)Nc2ccccc2F)n1CCc1ccccc1 ?
VCAM-1 up: inactive; Proteasome disasm: 3.6

What do the screens show for `CCOc1ccc(C(=O)N(CN2CCCC2=O)c2ccc(C)cc2)cc1`?
VCAM-1 up: inactive; Proteasome disasm: -1.1

What do the screens show for `CCN(C(=O)CCN1C(=O)c2ccccc2C1=O)C1CCCCC1`?
Proteasome disasm: 1.3

What do the screens show for `C=CCNc1nnc(SC2CC(=O)N(c3ccc(OC)cc3)C2=O)s1` (configuration not stated)?
VCAM-1 up: inactive; Proteasome disasm: -0.9

Results for CCC1CCCCN1C(=O)Cn1c(C(=O)OC)cc2ccsc21 (configuration not stated) ?
Proteasome disasm: -0.7

What do the screens show for `CC(C(=O)c1ccccc1)n1cnc2ccccc2c1=O` (configuration not stated)?
VCAM-1 up: inactive; Proteasome disasm: 0.0

Results for CCOC1(NC(=O)c2ccccc2)C(C)=CC(=O)C=C1C ?
Proteasome disasm: 0.9

How did COc1cccc(NC(=O)CSc2nnc(-c3cc(-c4ccccn4)nc4ccccc34)o2)c1 do in these assays?
VCAM-1 up: inactive; Proteasome disasm: 3.8

What do the screens show for `CCN(CC)C1CC(=O)N(c2cccc(C)c2)C1=O` (configuration not stated)?
Proteasome disasm: -1.0

Results for CCOC(=O)c1ccc(COC(=O)c2nonc2N)cc1 ?
Proteasome disasm: -0.1

Results for O=C(CCc1ccccc1)OCCN1CCOCC1 ?
Proteasome disasm: 0.9

What do the screens show for `CCOC(=O)CSc1nc(N)cc(=O)[nH]1`?
Proteasome disasm: 1.2

Results for CCOc1cc(NC(=O)c2ccccn2)c(OCC)cc1NC(=O)CC(C)C ?
VCAM-1 up: inactive; Proteasome disasm: 0.7

What do the screens show for `O=C(COC(=O)c1ccc(S(=O)(=O)Nc2ccccc2)cc1)NCCN1C(=O)CSC1=O`?
VCAM-1 up: inactive; Proteasome disasm: -1.2

How did Nc1nc(Nc2cccc3ccccc23)nc(C2CCCC2=O)n1 (configuration not stated) do in these assays?
VCAM-1 up: inactive; Proteasome disasm: 1.3

Results for O=C(NC12CC3CC(CC(C3)C1)C2)N1CCN(C(=O)C2CCCO2)CC1 (configuration not stated) ?
VCAM-1 up: inactive; Proteasome disasm: -3.2

What do the screens show for `COc1ccc(-n2ncc3c(NCc4cccs4)ncnc32)cc1`?
VCAM-1 up: inactive; Proteasome disasm: -1.1

Results for CCc1cc2c(=O)c(-c3cnn(-c4ccccc4)c3)coc2c(CN2CCOCC2)c1O ?
Proteasome disasm: 2.7

Results for CC(C)COc1nc2ccccc2nc1C(C#N)C(=O)NC1CCCCC1 (configuration not stated) ?
VCAM-1 up: inactive; Proteasome disasm: -1.4

What do the screens show for `COc1ccc(C2/C(=C(/O)c3ccccc3)C(=O)C(=O)N2c2ncccn2)cc1OC` (configuration not stated)?
VCAM-1 up: inactive; Proteasome disasm: -2.2

What do the screens show for `CC(C)CCn1c(N)c(S(=O)(=O)c2cccs2)c2nc3ccccc3nc21`?
VCAM-1 up: inactive; Proteasome disasm: -1.1

A draw from above in order of SMILES length, rising:
What do the screens show for `CCOC(=O)CSc1nc(N)cc(=O)[nH]1`?
Proteasome disasm: 1.2

Results for O=C(NC12CC3CC(CC(C3)C1)C2)N1CCN(C(=O)C2CCCO2)CC1 (configuration not stated) ?
VCAM-1 up: inactive; Proteasome disasm: -3.2

Results for CCc1cc2c(=O)c(-c3cnn(-c4ccccc4)c3)coc2c(CN2CCOCC2)c1O ?
Proteasome disasm: 2.7

What do the screens show for `COc1ccc(C2/C(=C(/O)c3ccccc3)C(=O)C(=O)N2c2ncccn2)cc1OC` (configuration not stated)?
VCAM-1 up: inactive; Proteasome disasm: -2.2

The listing continues:
Results for O=C(O)COc1cccc(NC(=O)C2CCCO2)c1 (configuration not stated) ?
VCAM-1 up: inactive; Proteasome disasm: -2.6

How did CCCCN(Cc1ccccc1)C(=O)c1cnc2n(c1=O)CCS2 do in these assays?
Proteasome disasm: 0.4

What do the screens show for `O=C(COC(=O)c1cccs1)c1ccc2c(c1)OCCO2`?
Proteasome disasm: -0.6

What do the screens show for `O=S(=O)(O)CCN1CCOCC1`?
Proteasome disasm: -2.4

Not all compounds are listed, so the mix of outcomes need not match the whole.
